E coli growth = E. coli growth inhibition, primary screen, OD600; Escherichia coli growth, 23 h; hits give low values; OD600 absorbance (test concentration not listed); hit rate 0.21% among 330,000; AID 1053175, 2014;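 active means OD600 absorbance below the run mean of sample wells minus 3.6 SD, in any replicate, cut at about 0.56 in these data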;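 further: stock transfer was 300 nL into about 60 µL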
Beta2AR agonist = beta2AR agonists driving receptor internalization, primary screen, cell-based, FAP fluorogen, flow cytometry; Beta-2 adrenergic receptor (Homo sapiens), P07550; Am2.2-beta2AR cells; reference of the scale not given here; response, % (no concentration beside the values); hit rate 0.43% among 340,000; AID 504454, 2011;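 active means response above a set limit, near 3 SD of response in nonfluorescent compounds, cut at about 42% in these data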;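 further: stock transfer was 100 nL into about 11 µL; a reference agonist was the positive control; negative values mostly stem from fluorescent compounds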
LANA-H2A inh = blockers of LANA interaction with H2A/H2B – biochemical, FP readout, HTS, primary screen | Protein LANA1 (Human herpesvirus 8 type P (isolate GK18)), Q9QR71 | cell-free LANA-H2A/H2B peptide, fluorescence polarization | inhibition, % (test concentration not listed) | hit rate 0.6% among 320,000 | AID 2629, 2010; in the data active means inhibition mostly above about 10%, no sharp cut-off; inactive means mostly below about 6.7%;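 further: stock transfer was 7.5 nL into about 10 µL; 0% = median of vehicle wells and 100% = median of positive control wells; one replicate is shown; the record names a cut of 25% in any replicate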
FGF22 binding = binders of human FGF22 protein, primary screen, FGF22 synaptogenesis inhibitor project, biophysical, thermal shift, single point; recombinant FGF22 thermal shift, SYPRO orange fluorescence; percent of sucrose octasulfate shift, DMSO zero; calls only at 9.99 µM; hit rate 1.5% among 340,000; AID 651658, 2012;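 active means melting point raised past a set limit in the mean and every replicate; three in four hits are not shown here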
Target sequence (Q9HCT0 whole entry, looked up): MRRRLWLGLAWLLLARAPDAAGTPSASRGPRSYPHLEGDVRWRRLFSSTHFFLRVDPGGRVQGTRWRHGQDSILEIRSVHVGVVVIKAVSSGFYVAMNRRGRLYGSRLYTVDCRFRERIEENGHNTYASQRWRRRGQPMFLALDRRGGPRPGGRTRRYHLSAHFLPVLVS
UCH37 inh = inhibitors of human UCH37 deubiquitinase, primary screen, biochemical, Ub-AMC cleavage, fluorescence; purified proteasome/UCH37; inhibition, % (no concentration beside the values); hit rate 0.33% among 330,000;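 active means mean of two replicates above 20%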;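 further: 0% = compound-free wells with enzyme and 100% = wells lacking proteasome; stock transfer was 100 nL into about 20 µL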
Target sequence (Q9Y5K5 whole entry, looked up): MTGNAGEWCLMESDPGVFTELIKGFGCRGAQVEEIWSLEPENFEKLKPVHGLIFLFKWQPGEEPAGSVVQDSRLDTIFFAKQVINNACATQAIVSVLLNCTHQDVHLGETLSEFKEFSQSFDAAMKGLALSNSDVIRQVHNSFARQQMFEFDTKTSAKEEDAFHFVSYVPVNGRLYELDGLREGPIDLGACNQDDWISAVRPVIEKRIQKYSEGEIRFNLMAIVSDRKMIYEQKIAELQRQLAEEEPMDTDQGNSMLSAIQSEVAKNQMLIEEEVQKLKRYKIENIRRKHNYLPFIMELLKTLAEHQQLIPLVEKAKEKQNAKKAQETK
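Material: human UCH37 enzyme supplied as purified proteasome complex. Measure: % inhibition of Ub-AMC cleavage fluorescence. Medium: pH 7.4 Tris-HCl (50 mM) with ovalbumin, ATP-MgCl2, DTT. Times: 30 min preincubation with enzyme, 25 min cleavage at room temperature. Detection: AMC fluorescence intensity at 355/460 nm.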
HNF4A DNA FP = change in binding of human HNF4A to DNA, primary screen, biochemical, fluorescence polarization, FITC-DNA. Hepatocyte nuclear factor 4-alpha (Homo sapiens), P41235. 1 h. activity change, % at 10 µM. hit rate 0.3% among 360,000. AID 1224865, 2016; in the data active means activity change above about 30%, passing the limit was not always enough;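 further: controls were the assay level and a saturating level of protein; the project sought stronger binding though the title names inhibitors; some compounds called inactive have numbers as strong as hits; positive values seem to mean higher polarization but the record does not say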
ALR H2O2 inh = inhibitors of human ALR sulfhydryl oxidase, primary screen, biochemical, H2O2 detection, HRP-luminol luminescence, single point; AID 485317, 2010; hit rate 3.8% among 290,000; purified ALR, DTT oxidation; inhibition, % (concentration not given with the values); FAD-linked sulfhydryl oxidase ALR (Homo sapiens), P55789;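 active means mean and each replicate at 75% or more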;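 further: stock transfer was 7.5 nL into about 7.5 µL; 0% = neutral wells and 100% = wells with inactivated enzyme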
Target sequence (P55789 whole entry, looked up): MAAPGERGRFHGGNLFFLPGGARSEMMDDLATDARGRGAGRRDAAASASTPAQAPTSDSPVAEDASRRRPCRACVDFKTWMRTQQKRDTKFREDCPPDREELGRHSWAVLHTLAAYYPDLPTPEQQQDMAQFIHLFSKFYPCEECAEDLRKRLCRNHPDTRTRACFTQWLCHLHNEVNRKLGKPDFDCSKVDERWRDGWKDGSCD
Numbers without * were called inactive; i = inactive; . = no result given; & = joins results of further samples. A portion of the library (hit frequency here may not be typical).

SMILES	E coli growth	Beta2AR agonist	LANA-H2A inh	FGF22 binding	UCH37 inh	HNF4A DNA FP	ALR H2O2 inh
COc1ccc(CCn2ccc(O)c(Cc3ccc(Cl)cc3Cl)c2=O)cc1OC	0.7	-4	-1.5	i	3.9	1.3	-1
COc1ccc(C(=O)Nc2ccc(S(=O)(=O)NC(C)C)cc2)cc1	0.69	1	1.8	.	0.5	1.5	.
CSc1nnc2c3cc(F)ccc3n(C)c2n1	0.7	0	3.8	i	2.7	1.7	1
COc1ccc(CNC(=O)c2cncc(Br)c2)cc1	0.69	10	0.6	i	0.3	-3.5	-8
CSC(=S)N(C)C1CCS(=O)(=O)C1 (stereo unspecified)	0.68	-2	-5.0	.	5.7	1.2	.
O=C1Nc2ccc(Br)cc2C1Cc1ccccc1F (stereo unspecified)	0.73	-2	5.1	i	0.0	1.3	65
CCOC(=O)c1c(C=O)c(C)n(Cc2ccc(C)cc2)c1C	0.69	-5	1.5	.	3.2	0.3	-8
Cc1ccc(-c2cc(C(=O)NCCCN3CCOCC3)no2)cc1	0.7	3	1.5	.	-1.4	4.0	-2
CCOCC(=O)Nc1ccc(S(=O)(=O)N2CCC(c3nc4ccccc4[nH]3)CC2)cc1	0.62	-6	2.3	i	5.3	3.0	-6
CCOc1ccccc1NC(=O)CSc1nnc(-c2cccnc2)o1	0.68	-3	-9.9	i	1.3	1.9	-49
CC(=O)Nc1cccc(C(=O)/C=C/c2ccc(C)cc2)c1	0.68	-3	-1.8	i	4.6	7.2	49
O=C(Nc1ccccc1)c1cc(S(=O)(=O)N2CCCCC2)ccc1N1CCOCC1	0.68	-1	.	i	-0.9	3.2	.
COc1ccc(NC(=O)[C@H](COCc2ccccc2)NC(=O)OC(C)(C)C)cc1	0.74	5	0.7	.	2.3	0.8	.
O=C(Cn1cnc([N+](=O)[O-])c1)Nc1cc(Oc2ccc(Cl)cc2Cl)cc([N+](=O)[O-])c1	0.75	15	-0.5	.	4.8	-0.4	-9
COc1ccc(N(C(=O)c2cccnc2)S(=O)(=O)c2cc(OC)ccc2OC)cc1	0.71	2	-2.4	i	0.9	0.0	6
Cc1ccc(C(=O)Nc2ccccc2C(=O)NCc2ccccc2)cc1	0.71	-2	.	.	-28	-1.3	.
Cc1ccn(CC(=O)N2CCCC(N3CCN(c4ccc(F)cc4)CC3)C2)n1 (stereo unspecified)	.	-1	.	i	.	0.2	.
COCC(=O)Nc1c(C(=O)Nc2ccccc2OC)oc2ccccc12	0.67	0	2.0	.	-147	-0.7	-8
Cc1nn(C)c(C)c1NS(=O)(=O)c1ccc(Cl)cc1	0.69	5	-1.7	i	-0.2	-0.5	-4
N=C1/C(=C\c2ccc(Br)o2)C(=O)N=C2SC(CC(=O)N3CCOCC3)=NN12	0.67	5	1.0	i	11	-6.1	21
O=C(CSc1nnnn1-c1ccccc1)CSc1nnnn1-c1ccccc1	0.68	-8	6.9	i	0.8	-2.1	11
COCCn1c(SCc2ccc(C)cc2)nc2c1c(=O)[nH]c(=O)n2C	0.67	-10	3.4	i	1.9	2.3	-20
COc1ccc(NC(=O)N(C2CCCCC2)C2CCN(C(C)C)CC2)c(OC)c1	0.74	4	.	.	-0.3	0.3	.
Cc1[nH]nc2ncc(C(=O)c3cc(Cl)cc(Cl)c3O)cc12	0.71	-2	-1.3	.	-0.1	5.5	7
O=C(CSc1nc(NS(=O)(=O)c2ccccc2)cc(=O)[nH]1)Nc1ccccc1C(F)(F)F	0.62	-5	0.5	i	5.9	2.8	60
COCc1cc(CN2CCN(C)CC2)c(O)c2ncccc12	0.71	5	-4.4	.	-0.9	0.8	-2
O=C(CSc1nnc(-c2ccncc2)n1CC1CCCO1)Nc1ccccc1Cl (stereo unspecified)	0.68	-1	-4.0	i	0.5	-0.3	7
COC(=O)c1ccc(Cn2nnc3c(=O)[nH]c(C4CCN(S(=O)(=O)c5cc(C)ccc5C)CC4)nc32)cc1	0.71	26	.	.	0.9	5.3	-10
COc1ccc(OCC(=O)N2CCN(C(=O)c3ccc(F)cc3)CC2)cc1	0.66	4	-8.0	i	0.2	-0.9	-1
CCOc1ccc(NC(=O)CC(Cc2cc(C)cc(C)c2)C(=O)O)cc1 (stereo unspecified)	0.69	-1	4.0	i	0.8	0.3	-2

4 compounds drawn at random from the list so far:
SMILES	E coli growth	Beta2AR agonist	LANA-H2A inh	FGF22 binding	UCH37 inh	HNF4A DNA FP	ALR H2O2 inh
COc1ccc(OCC(=O)N2CCN(C(=O)c3ccc(F)cc3)CC2)cc1	0.66	4	-8.0	i	0.2	-0.9	-1
COCCn1c(SCc2ccc(C)cc2)nc2c1c(=O)[nH]c(=O)n2C	0.67	-10	3.4	i	1.9	2.3	-20
Cc1[nH]nc2ncc(C(=O)c3cc(Cl)cc(Cl)c3O)cc12	0.71	-2	-1.3	.	-0.1	5.5	7
O=C(CSc1nc(NS(=O)(=O)c2ccccc2)cc(=O)[nH]1)Nc1ccccc1C(F)(F)F	0.62	-5	0.5	i	5.9	2.8	60

Later entries
SMILES	E coli growth	Beta2AR agonist	LANA-H2A inh	FGF22 binding	UCH37 inh	HNF4A DNA FP	ALR H2O2 inh
O=C(CCSc1ccccc1)N1CCN(c2ccccc2)CC1	0.69	14	-8.1	i	-0.9	5.0	91*
CC1CC(=O)Nc2ccccc2N1S(=O)(=O)c1ccccc1 (stereo unspecified)	0.66	2	-2.9	.	1.5	-1.3	-6
CN(CC(=O)Nc1ccccc1Br)C(=O)c1cc2c(s1)CCCCC2	0.66	7	-1.0	i	-2.8	2.4	-6
COc1cccc(-n2nc(-c3ccnn3-c3cccc(Cl)c3)c(=O)n(C)c2=O)c1	0.66	-6	-0.1	i	-42	-1.2	-1
Cc1ccc(S(=O)(=O)CC(=O)N2CCN(c3ccccc3F)CC2)cc1	0.68	0	-9.0	i	0.3	-0.7	-19
O=C(c1cccc(F)c1)N1CCN(S(=O)(=O)c2ccccc2)CC1	0.67	5	-2.9	.	-1.7	1.3	-2
Cc1cc([N+](=O)[O-])ccc1NCc1ccc2c(c1)OCCO2	0.64	-2	-1.0	i	3.3	4.0	-6
CCOC(=O)c1c(NC(=O)CNCC(O)CO)sc(C)c1C (stereo unspecified)	0.7	-5	-0.8	.	-19	2.2	4
Cc1nc2sc3c(c2c(=O)n1NC(=O)CCl)CCCC3	0.64	5	0.2	i	-2.8	3.1	0
O=C(O)c1cccc(Oc2ccc(C(=O)O)c([N+](=O)[O-])c2)c1	0.69	6	.	i	3.4	-1.2	.
O=C(CSc1nccc(=O)[nH]1)N1c2ccccc2CCc2ccccc21	0.71	4	0.7	i	4.3	1.8	1
CC1CCCCC1NC(=O)CN1C(=O)NC(C)(c2cc(F)ccc2F)C1=O (stereo unspecified)	0.66	-1	3.7	i	3.5	-1.4	.
COc1ccc(C(=O)NC(=S)Nc2ccc(S(=O)(=O)Nc3cc(OC)ncn3)cc2)cc1	0.63	3	1.7	i	3.1	-3.9	-2
Cc1nnc(SCCn2c(N3CCN(C)CC3)nc3c2c(=O)n(C)c(=O)n3C)s1	0.7	4	3.4	.	2.7	0.0	-5
CCCN(C(=O)COc1ccc(C(C)=O)cc1OC)C1CCS(=O)(=O)C1 (stereo unspecified)	0.71	4	1.1	i	-1.3	-4.0	-4
O=C(O)COc1ccc(/C=C/c2ccc3cccc([N+](=O)[O-])c3n2)cc1	0.58	13	.	i	4.8	-5.8	.
c1ccc(CCC2=NCCn3cccc32)cc1	0.64&0.71	7&-4	-8.3	i	-1.8&-7.7	-0.9&-0.8	2
CCNC(=S)N1CCN(S(=O)(=O)c2ccccc2C(F)(F)F)CC1	0.64	-2	-4.3	i	2.7	4.0	-20
CCOC(=O)c1ccc(NC(=S)NCc2ccc(F)cc2)cc1	0.63	1	-6.7	i	2.2	-0.9	-10
CCC(CC)NC(=O)CN1CCN(S(=O)(=O)c2cccs2)CC1	0.69	-7	.	i	2.1	0.0	.
CCOC(=O)C1CCN(c2ccc(Cl)nn2)CC1	0.67	-8	3.6	i	0.3	-3.6	.
CC(=O)n1cc([C@@H]2C=C(C(=O)Nc3ccccc3)O[C@H](OCc3ccc(CO)cc3)C2)c2ccccc21	.	5	4.7	i	0.2	2.0	-1
O=C(Nc1cc(S(=O)(=O)N2CCCC2)ccc1Cl)C1=COCCO1	0.73	-4	6.7	.	3.6	-1.6	-5
COc1ccc(O)c(/C=N/Nc2nc(Nc3ccccc3)nc(-n3nc(C)cc3C)n2)c1	.	21	-1.1	.	.	-1.1	-9
COC(=O)c1cc(NC(=O)c2ccccc2)c(=O)oc1C/C=N\OCc1ccc(Cl)cc1Cl	.	-4	-0.8	.	.	24	-2
CCc1noc(C)c1C(=O)Nc1nc2c(C)cc(C)cc2s1	0.67	6	-2.3	i	-0.3	0.8	0
Cc1sc2nc(CSCC(=O)Nc3ccc(C(=O)N(C)C)cc3)[nH]c(=O)c2c1C	0.66	7	-2.8	i	-21	14	99*
O=c1c2ccccc2cnn1Cc1n[nH]c(=S)n1-c1ccc(Cl)cc1Cl	0.74	.	0.7	.	0.3	.	10
COc1ccccc1NS(=O)(=O)c1cc(NC(=O)C2CCCO2)ccc1C (stereo unspecified)	0.7	-10	0.0	i	2.9	2.3	-4
Cc1ccc(SCCNC(=O)c2cccc([N+](=O)[O-])c2C)cc1	0.73	1	-2.1	.	0.7	6.6	-5
CC(C)=NNc1cc([N+](=O)[O-])cc2c1C(=O)N(C)S2=O (stereo unspecified)	0.7	-3	-1.5	i	3.3	-5.5	-15
CC(=O)NC(=S)NNC(=O)CCc1ccccc1	0.54	17	2.5	i	3.8	3.4	41
CC(=O)c1ccc(S(=O)(=O)N2CCN(c3nn(C)c(=O)n(C)c3=O)CC2)cc1	0.69	-7	.	i	-1.7	0.6	.
CCO[C@@H]1OC(C(=O)N2CCOCC2)=C[C@H](C2CC2)[C@H]1CCCO	.	-2	-7.8	i	3.8	-1.9	-4
COc1ccccc1C1/C(=C(/O)c2ccc(OC(C)C)cc2)C(=O)C(=O)N1c1cc(C)on1 (stereo unspecified)	0.73	8	-3.3	.	9.9	1.9	7
CCOC(=O)c1sc(N)nc1C(C)C	0.75	3	-0.5	.	3.3	-1.6	-2
COc1ccc(-c2ccc(NC(=O)c3ccc(Br)o3)cc2)nn1	0.69	-2	-2.5	i	-9.7	0.5	1
CCN(CC)CC(O)c1ccc2ccc3ccc(O)cc3c2c1 (stereo unspecified)	0.67	7	.	i	1.5	0.2	.
CCNC(=S)N1CCN(C(c2ccccc2)c2ccccc2)CC1	0.71	-16	-4.6	i	5.2	3.1	1
CC(=O)N1CCN(c2ccc(NC(=O)C(C)Oc3ccc(Cl)cc3Cl)cc2)CC1 (stereo unspecified)	0.69	-6	3.3	.	2.3	-0.5	31
CCOc1ccccc1-c1nc(SCC(=O)O)n[nH]1	0.68	0	-3.1	.	0.2	-0.6	.
Cn1c(NC(=O)C2CCCO2)cc(=O)n(C)c1=O (stereo unspecified)	0.71	1	-0.5	i	2.6	1.9	1
C[C@@H](NC(=O)c1ncn(C)c1C(=O)N[C@H](C)c1ccccc1)c1ccccc1	.	1	1.5	i	3.1	-2.2	-3
Cc1cccc(/C=c2\s/c(=C\C(=O)C(C)(C)C)[nH]c2=O)c1	.	-7	4.3	.	.	0.5	-11
O=C(CCNS(=O)(=O)c1cccs1)NCc1ccccc1	0.68	-4	2.6	.	3.8	-1.2	-9
CCCc1cc(C(=O)Cc2ccc(C(=O)OCC)o2)c(O)cc1O	0.71	10	-0.2	.	-1.1	17	18
O=C(O)CC(C(=O)OCCOc1ccccc1)N1CCOCC1 (stereo unspecified)	0.67	-6	-3.6	.	2.1	-0.2	-1

High-throughput results (PubChem BioAssay)
